Source: PubChem BioAssay (several laboratories)
HSV augment – HSV replication enhancement | 220,000 compounds, 0.005% hits | AID 1956 | HSV replication augmentation in cells, fold increase | maximum fold increase;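 active = peak rise of 1.5-fold or more in the series; tested in PC3 cells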;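 note: first round at 10 µM; read as green reporter fluorescence; hits show the peak of a series up to 25 µM; 1 = signal of infected wells without compound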
PKD1 inh – blocks activity of human protein kinase D1 | AID 797 | inhibition, %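 (about 10 µM by stock and volumes)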 | 200,000 compounds, 0.056% hits | PKD1 kinase fluorescence polarization assay;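 active = inhibition of 50% or more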;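 note: controls were vehicle for no effect and a reference inhibitor for full effect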
Target sequence (Q15139 whole entry, looked up): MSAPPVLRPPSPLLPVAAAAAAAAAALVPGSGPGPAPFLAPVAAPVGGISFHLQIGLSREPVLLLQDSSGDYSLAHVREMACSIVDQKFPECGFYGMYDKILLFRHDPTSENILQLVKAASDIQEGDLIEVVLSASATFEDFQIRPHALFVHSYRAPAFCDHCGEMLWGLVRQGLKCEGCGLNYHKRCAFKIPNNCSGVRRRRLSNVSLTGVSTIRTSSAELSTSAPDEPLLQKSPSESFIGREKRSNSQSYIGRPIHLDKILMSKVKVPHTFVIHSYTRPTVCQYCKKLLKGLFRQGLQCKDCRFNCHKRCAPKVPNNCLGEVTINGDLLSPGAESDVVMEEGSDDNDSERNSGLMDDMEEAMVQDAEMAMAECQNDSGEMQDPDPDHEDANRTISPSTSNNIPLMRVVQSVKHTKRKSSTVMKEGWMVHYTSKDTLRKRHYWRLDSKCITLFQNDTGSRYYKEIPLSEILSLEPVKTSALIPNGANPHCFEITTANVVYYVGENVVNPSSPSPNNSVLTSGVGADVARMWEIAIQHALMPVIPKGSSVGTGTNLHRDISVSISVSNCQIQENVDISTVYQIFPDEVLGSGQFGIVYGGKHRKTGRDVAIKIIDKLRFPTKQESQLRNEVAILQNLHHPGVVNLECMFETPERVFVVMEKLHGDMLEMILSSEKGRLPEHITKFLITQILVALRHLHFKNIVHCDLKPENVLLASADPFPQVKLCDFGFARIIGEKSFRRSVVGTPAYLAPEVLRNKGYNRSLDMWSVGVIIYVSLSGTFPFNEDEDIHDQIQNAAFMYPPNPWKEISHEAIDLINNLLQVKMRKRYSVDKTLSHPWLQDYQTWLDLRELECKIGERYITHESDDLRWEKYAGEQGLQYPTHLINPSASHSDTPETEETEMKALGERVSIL
GALR2 agonist – GALR2 (human) receptor agonism; AID 803; GALR2-expressing cells, agonist activation read-out; activation, %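 (tested at 5 µM)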; 140,000 compounds, 0.48% hits;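 active = above mean plus 3 SD of all compounds, about 5% in these data, not always enough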;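 note: 0% = vehicle buffer wells and 100% = reference agonist at full effect; tested in CHO reporter cells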
Insulin prom inh – TRM-6 insulin promoter activity inhibition; TRM-6 cells (human fetal islet line), insulin promoter-eGFP reporter, imaging; reporter expression induced with tamoxifen; inhibition, % at 2 µM; 130,000 compounds, 0.9% hits; AID 1273;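 active = inhibition above the mean plus 3 SD, with well images judged a real hit on visual review, cut at about 60% in these data, passing the limit was not always enough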
RGS16-Gao – RGS16-Galphao interaction regulator (human) | O15492+P09471 | bead-based flow cytometry RGS16-Galphao binding, fluorescence; actives lie on both sides | binding response (% of control), % at 10 µM | 220,000 compounds, 0.38% hits | AID 1441;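 active = below 25% or above 175%, edge rows of some plates excepted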;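 note: Galphao activated by GDP with aluminum fluoride before binding; 100% = wells without compound and 0% = beads without RGS; some results beyond the cut were filed as inactive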
Insulin prom inh cell count – recorded beside Insulin prom inh, whose call it bears; normalized cell count, %; measured here: cell count, toxicity; reference of the scale not given here;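 cells exposed to compound for 48 h; stained nuclei by imaging scaled within each plate; lower means fewer cells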
HSV augment primary fold – also measured in HSV augment; calls as there; fold increase; compound at 10 µM; measured here: primary screen fold increase 10 uM; tested in PC3 cells;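 GFP signal in the first replicate; 1 = infected wells without compound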
Active calls of the source: *; i = inactive; / = not tested or not shown.

structure | HSV augment primary fold | GALR2 agonist | Insulin prom inh | PKD1 inh | HSV augment | RGS16-Gao | Insulin prom inh cell count
CC(C)CCN(C(=O)Cc1ccccc1F)c1c(N)n(Cc2ccccc2)c(=O)[nH]c1=O | 0.94 | / | / | -6 | i | 99 | /
O=C(c1cccc(F)c1)N1CCN(S(=O)(=O)Cc2ccccc2)CC1 | 0.98 | / | / | / | i | 102 | /
CCC1(C)CC(c2nc(-c3ccc(OC)cc3)cs2)CCS1 (centres undefined) | 1.1 | 0.7 | 0 | 4 | i | 102 | 120
CCC(C)[C@H](NC(=O)NC1CC1)C(=O)O (some centres undefined) | 1.1 | -1.7 | / | -11 | i | 96 | /
CC(C)(C)C1CCC(OC(=O)CCC(=O)Nc2ccccc2)CC1 (centres undefined) | 0.98 | -0.3 | -78 | 4 | i | 98 | 100
Cc1nc(-c2ccccc2O)n(S(=O)(=O)N(C)C)n1 | 0.88 | -1.5 | 20 | -9 | i | 106 | 109
CC1(CCc2ccccc2)NC(=S)N(c2ccccc2)N1 (centres undefined) | 0.98 | -1.8 | 4 | -8 | i | 103 | 92
C=CCNC(=O)c1ccccc1NC(=O)c1cccc2ccccc12 | 0.96 | -1.3 | -11 | -8 | i | 73 | 65

structure | HSV augment primary fold | GALR2 agonist | Insulin prom inh | PKD1 inh | HSV augment | RGS16-Gao | Insulin prom inh cell count
COc1cccc(C2CC(c3ccc(Cl)cc3Cl)n3nc(N)nc3N2)c1 (centres undefined) | 1 | -4.1 | / | 1 | i | 107 | /
Cc1nc(=S)n(-c2ccccc2)[nH]1 | 1 | -0.4 | -44 | 0 | i | 27 | 92
Cc1cccc(S(=O)(=O)N2CCC(CO)(Cc3ccccc3)CC2)c1 | 0.99 | / | / | 7 | i | 101 | /
NC(=O)c1cc2n(n1)C(C(F)(F)F)CC(c1ccco1)N2 (centres undefined) | 0.86 | -0.6 | -61 | 0 | i | 98 | 76
Cc1cc(C)n(-c2nnc(C)n2N)n1 | 0.99 | -0.5 | / | -3 | i | 105 | /
Cn1c(=O)n(CCc2ccccc2)c(=O)c2c1ncn2Cc1ccccc1 | 1 | -1.4 | 11 | -1 | i | 103 | 98
O=C(Nc1nc2ccc([N+](=O)[O-])cc2s1)c1ccco1 | 0.85 | / | 24 | -3 | i | 105 | 144
CCCCc1ccc(NC(=S)Nc2ccc(Cl)c(S(=O)(=O)N(C)C)c2)cc1 | 1.1 | -0.8 | -12 | -7 | i | 104 | 121

5 structures out of the list, sorted by number of heavy atoms, largest number first:
structure | HSV augment primary fold | GALR2 agonist | Insulin prom inh | PKD1 inh | HSV augment | RGS16-Gao | Insulin prom inh cell count
COc1cccc(C2CC(c3ccc(Cl)cc3Cl)n3nc(N)nc3N2)c1 (centres undefined) | 1 | -4.1 | / | 1 | i | 107 | /
O=C(Nc1nc2ccc([N+](=O)[O-])cc2s1)c1ccco1 | 0.85 | / | 24 | -3 | i | 105 | 144
Cc1nc(-c2ccccc2O)n(S(=O)(=O)N(C)C)n1 | 0.88 | -1.5 | 20 | -9 | i | 106 | 109
CCC(C)[C@H](NC(=O)NC1CC1)C(=O)O (some centres undefined) | 1.1 | -1.7 | / | -11 | i | 96 | /
Cc1cc(C)n(-c2nnc(C)n2N)n1 | 0.99 | -0.5 | / | -3 | i | 105 | /

Continuation.
structure | HSV augment primary fold | GALR2 agonist | Insulin prom inh | PKD1 inh | HSV augment | RGS16-Gao | Insulin prom inh cell count
CCC(C)n1c(-c2ccco2)nc2nc3ccccc3nc21 (centres undefined) | / | 4.8 | -49 | 0 | / | 118 | 117
CCOc1ccc(NC(=O)CN2CCN(CC(=O)Nc3cccc(F)c3)CC2)cc1 | 0.9 | -1.1 | 19 | -5 | i | 105 | 123
Cn1nccc1C(=O)c1ccc(Cl)cc1 | 1.1 | -2.1 | 41 | -6 | i | 106 | 76
O=C(Cc1ccccc1)NN1C(=O)C2C3C=CC(C3)[C@@H]2C1=O (some centres undefined) | 0.94 | -0.6 | -8 | -3 | i | 103 | 119
CC(C)Cc1ccc(S(=O)(=O)N2CCOCC2)cc1 | 0.99 | -2.3 | 19 | -9 | i | 105 | 130
CC(C)(C)S(=O)(=O)/C(C#N)=N/Nc1ccc(S(N)(=O)=O)cc1 | 1 | / | / | -5 | i | 97 | /
COc1ccc(CN2C(=O)c3cccc4cccc(c34)C2=O)cc1 | 0.92 | / | / | / | i | 97 | /
OCCC1CN(Cc2cccc3nonc23)CCN1C1CCCCC1 (centres undefined) | 1 | / | / | -2 | i | 100 | /

structure | HSV augment primary fold | GALR2 agonist | Insulin prom inh | PKD1 inh | HSV augment | RGS16-Gao | Insulin prom inh cell count
Cc1cc(NC(=O)COC(=O)COc2ccc(Cl)cc2C)c([N+](=O)[O-])cc1C | 0.97 | -2.0 | 0 | -9 | i | 50 | 143
O=C(c1noc2c1CCCC2)N1CCN(c2ccccc2)CC1 | 0.96 | -0.7 | / | 0 | i | 97 | /
COc1cccc(C(C)N(C)Cc2nc(COc3ccccc3)no2)c1 (centres undefined) | 0.93 | / | / | / | i | 104 | /
C[C@H](C(=O)O)c1n[nH]c(=O)c2ccccc12 | 1.1 | -0.4 | -9 | 0 | i | 102 | 66
c1ccc2c(Cn3ccnc3)c[nH]c2c1 | 1.1 | -1.4 | -22 | -7 | i | 103 | 133
COCCn1c(SCC(=O)Nc2cccc(S(N)(=O)=O)c2)nc2cc(Cl)ccc2c1=O | 0.89 | / | 50 | -4 | i | 98 | 60
O=C(COc1ccccc1)N1CCN(c2ncnc3c2cnn3-c2ccccc2)CC1 | 0.97 | -0.3 | -8 | -1 | i | 96 | 78
COCCn1c(SCCN2CCOCC2)nc2c1c(=O)[nH]c(=O)n2C | 0.83 | -4.0 | / | 6 | i | 99 | /

structure | HSV augment primary fold | GALR2 agonist | Insulin prom inh | PKD1 inh | HSV augment | RGS16-Gao | Insulin prom inh cell count
O=C(OCn1ncc(Cl)c(Cl)c1=O)c1cccc(C(F)(F)F)c1 | 0.39 | -1.3 | -42 | -3 | i | 96 | 16
OC(CSc1c(Cl)cccc1Cl)CN1CCN(c2ccccc2F)CC1 (centres undefined) | 1 | -0.2 | -18 | -5 | i | 100 | 19
CCC(=O)N1CCN(c2ccc(NC(=O)c3c(F)c(F)c(OC)c(F)c3F)cc2)CC1 | 0.91 | -0.8 | 43 | -4 | i | 97 | 58
CN(c1ccccc1)S(=O)(=O)c1ccc(C(=O)Nc2nnc(C3CC3)s2)cc1 | 1.2 | / | / | / | i | 97 | /
Cc1ccc(-n2cc(CNCCn3nc(C)cc3C)c(-c3ccc(F)cc3)n2)cc1 | 0.85 | / | / | -7 | i | 107 | /
COC(=O)C1=C(C)NC(C)=C(C(=O)OC)C1c1ccc(C)o1 | 0.9 | / | / | / | i | 98 | /
O=C(Nc1ccccc1)Nc1ccc2nnsc2c1 | 1.1 | / | / | / | i | 109 | /
Cc1ccc(S(=O)(=O)N2CCN(CC(=O)N/N=C/c3ccc(Br)s3)CC2)cc1 | 0.78 | -0.1 | -12 | 4 | i | 104 | 104

structure | HSV augment primary fold | GALR2 agonist | Insulin prom inh | PKD1 inh | HSV augment | RGS16-Gao | Insulin prom inh cell count
COc1ccc(/C=C/c2cc(C(=O)O)c3ccccc3n2)cc1 | 0.94 | / | / | / | i | 103 | /
Cc1cc(=O)[nH]c(SCC(=O)Nc2nnc(SCc3ccccc3)s2)n1 | 1 | / | -12 | 8 | i | 109 | 122
COc1ccc(NC(=O)CN(C2CCCCC2)S(C)(=O)=O)cc1Cl | 1 | -2.9 | -8 | 2 | i | 103 | 56
O=C(Nc1cccc(-c2nc3cccnc3s2)c1)c1ccc(Cl)nc1 | 0.88 | / | / | / | i | 88 | /
N#CCCCSc1ncccc1-c1nc2ccccc2[nH]1 | 0.89 | -2.0 | -89 | -9 | i | 98 | 30
Cc1ccc(-n2nc(C)c3c(C)c(CCC(=O)Nc4ccc(CN5CCCC5)cc4)c(C)nc32)cc1 | 0.67 | / | / | / | i | 100 | /
Cc1ccsc1/C=C1/CN(C)Cc2c1nc1ccccc1c2C(=O)O | 0.95 | / | / | / | i | 102 | /
O=C(NC1CCCC1)C(c1ccncc1)N(Cc1cccs1)C(=O)c1csnn1 (centres undefined) | 1 | -1.1 | -26 | -4 | i | 100 | 146

structure | HSV augment primary fold | GALR2 agonist | Insulin prom inh | PKD1 inh | HSV augment | RGS16-Gao | Insulin prom inh cell count
COc1ccc(OCCCC(=O)NCCc2ccccc2)cc1 | 0.98 | -0.7 | -52 | 9 | i | 109 | 71
COc1cc(C2NC(C(=O)O)Cc3c2[nH]c2ccccc32)cc(OC)c1OC (centres undefined) | 0.95 | -1.1 | 4 | 1 | i | 101 | 114
Cc1cc(SCC(=O)OCC(=O)NC(C)c2ccccc2)c(C)cc1Br (centres undefined) | 1 | 0.1 | 24 | 12 | i | 89 | 105
O=C(NCCN1CCOCC1)c1ccc2c(c1)ncn2C1CCCC1 | / | 0.8 | 10 | -5 | / | 114 | 82
O=C(O)C(=O)/C(=C\c1cccc2ccccc12)c1ccc2ccccc2n1 | 0.96 | -0.3 | 10 | -1 | i | 99 | 74
CC(C)(C)NC(=O)C(c1ccccc1)N(C(=O)C1CSC(=O)C1)c1ccccc1 (centres undefined) | 1.2 | -2.2 | -89 | -8 | i | 105 | 94
Cc1ccc(O)c(NC(=O)c2cc([N+](=O)[O-])ccc2Cl)c1 | 0.65 | / | / | -4 | i | 102 | /
CSc1ccc(OC2CCCCC2NS(=O)(=O)c2ccc(Cl)cc2)cc1 (centres undefined) | 1 | -0.5 | 100* | -2 | i | 103 | 0.0*

structure | HSV augment primary fold | GALR2 agonist | Insulin prom inh | PKD1 inh | HSV augment | RGS16-Gao | Insulin prom inh cell count
COc1ccc([N+](=O)[O-])cc1NCc1cccc([N+](=O)[O-])c1 | 0.81 | / | 0 | 0 | i | 100 | 111
Cc1ccc(/C=N/NC(=O)c2csc3c2CCCC3)cc1 | 0.46 | -3.7 | / | -14 | i | 101 | /
Cc1cccc(-c2noc(-c3ccno3)n2)c1 | 0.89 | / | / | / | i | 98 | /
Cc1ccc(C(=O)N2CCOCC2)cc1Cl | 0.93 | -3.2 | -54 | -3 | i | 89 | 109
CCCCn1c(N)c(C(=S)NC(=O)CC(C)C)c(=O)n(C)c1=O | 1.1 | 0.9 | 17 | -5 | i | 106 | 98
Cc1c(/C=N/O)c2ccccn2c1C=O | 0.88 | / | / | -5 | i | 81 | /
COc1ccc(-c2nnc(SCC(=O)NC(=O)NCc3ccccc3)o2)cc1 | 0.99 | -2.8 | 0 | 1 | i | 99 | 121
COc1cc(C)nc(Nc2nc(C)c(C(C)=O)s2)n1 | 0.95 | 0.1 | 0 | -4 | i | 103 | 180

structure | HSV augment primary fold | GALR2 agonist | Insulin prom inh | PKD1 inh | HSV augment | RGS16-Gao | Insulin prom inh cell count
COC(=O)c1[nH]c2ccc(C)cc2c1NC(=O)Oc1ccccc1 | 0.94 | -1.2 | -7 | -8 | i | 102 | 57
C=CCC(CC=C)(C(N)=O)c1ccccc1 | 0.99 | / | / | 8 | i | 99 | /
CCCC(O)(CCC)C(=O)NN(C(=O)CCl)c1ccccc1 | 0.81 | -2.5 | 20 | -15 | i | 98 | 122
Cc1ccc(NC(=O)c2cc(-c3cccs3)on2)cc1C | 0.95 | / | / | -3 | i | 93 | /
Cc1nc(C(=O)Nc2ccc(Cl)cc2)nn1-c1ccc([N+](=O)[O-])cc1 | 0.68 | -0.7 | -30 | 2 | i | 111 | 105
Cc1oc(-c2ccccc2)cc1C(=O)NCc1ccncc1 | 0.98 | / | / | / | i | 97 | /
COc1ccc2c(c1)nc(NCCCO)n2Cc1ccccc1 | 1.1 | / | / | / | i | 97 | /
CC1(C)CC(CCN(Cc2ccccc2)C(=O)c2ccco2)(c2ccccc2)CCO1 (centres undefined) | 1.1 | -2.0 | -6 | 4 | i | 104 | 146

structure | HSV augment primary fold | GALR2 agonist | Insulin prom inh | PKD1 inh | HSV augment | RGS16-Gao | Insulin prom inh cell count
O=C(CSc1nnc(CNC(=O)c2ccccc2F)o1)c1ccc(Cl)cc1 | 1 | -1.2 | 4 | -4 | i | 102 | 108
Cc1nnc(Nc2ccc3c(c2)ncn3C)c2ccccc12 | 0.73 | -1.8 | -15 | 0 | i | 220 | 111
CC(C)(C)NC(=O)NC(=O)CSc1nnc(COc2ccccc2Cl)o1 | 0.98 | 0.0 | 16 | 4 | i | 100 | 103
CCN1CCN(c2ncnc3c2cnn3-c2ccc(C)cc2C)CC1 | 0.95 | / | / | / | i | 100 | /
Cc1ccc(-n2c(-c3cnccn3)n[nH]c2=S)c(Br)c1 | 0.88 | / | 25 | -2 | i | 113 | 128
Cn1c(NC(=O)C2CCCO2)cc(=O)n(C)c1=O (centres undefined) | 0.84 | -0.2 | -11 | -4 | i | 90 | 96
Cn1ncc(Cl)c1C(=O)N1CCN(C(=O)c2ccco2)CC1 | 0.81 | / | / | -3 | i | 104 | /
O=C(c1ccc(F)cc1)c1c[nH]c(C(=O)NCCCN2CCOCC2)c1 | 0.86 | 0.0 | 23 | 4 | i | 99 | 39
